High-throughput results from PubChem BioAssay.
Rango-impB inh – qHTS Assay for Inhibitors of Rango (Ran-regulated importin-beta cargo) - Importin beta complex formation; Importin subunit beta-1 (Homo sapiens), Q14974; Potency, µM (series often up to 92.2 µM), for inactives: at the top dose inhibition of complex formation; Rango CFP/YFP FRET sensor + importin beta, 45 min; AID 540263, 2011; 0.031% of 340,000 active; active = rising FRET ratio curve, often small or poorly fitted; inconclusive = mostly compound fluorescence or quenching in the first reads; inactive = flat curves in all reads;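 note: potency is the fitted concentration of half-maximal effect; 0% = DMSO wells and 100% = buffer wells lacking importin beta; nearly all actives have a fitted effect of over 15% in size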
Target sequence (Q14974 whole entry, looked up): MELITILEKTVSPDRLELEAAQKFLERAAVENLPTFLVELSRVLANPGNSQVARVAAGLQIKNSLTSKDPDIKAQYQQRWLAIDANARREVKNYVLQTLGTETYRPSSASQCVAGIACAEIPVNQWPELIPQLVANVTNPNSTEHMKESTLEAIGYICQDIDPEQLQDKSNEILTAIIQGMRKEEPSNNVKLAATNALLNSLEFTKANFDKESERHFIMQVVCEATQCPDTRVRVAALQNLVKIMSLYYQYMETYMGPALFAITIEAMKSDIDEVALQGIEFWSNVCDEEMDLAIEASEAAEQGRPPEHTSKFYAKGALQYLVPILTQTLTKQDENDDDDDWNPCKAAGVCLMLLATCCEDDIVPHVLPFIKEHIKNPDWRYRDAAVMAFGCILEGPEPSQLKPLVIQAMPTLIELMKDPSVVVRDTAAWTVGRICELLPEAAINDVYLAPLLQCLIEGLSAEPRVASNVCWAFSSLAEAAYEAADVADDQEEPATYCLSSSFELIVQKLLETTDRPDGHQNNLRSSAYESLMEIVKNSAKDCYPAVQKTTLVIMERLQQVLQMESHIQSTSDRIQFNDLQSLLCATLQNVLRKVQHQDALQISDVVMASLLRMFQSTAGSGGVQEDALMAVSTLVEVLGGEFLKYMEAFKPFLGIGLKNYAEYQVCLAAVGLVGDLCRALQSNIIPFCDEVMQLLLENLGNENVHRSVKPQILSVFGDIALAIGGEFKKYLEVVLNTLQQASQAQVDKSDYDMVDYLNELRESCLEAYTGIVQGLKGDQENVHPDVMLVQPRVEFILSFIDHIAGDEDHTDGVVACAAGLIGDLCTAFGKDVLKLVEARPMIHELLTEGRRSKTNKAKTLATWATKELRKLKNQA
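Inhibition scored from the CFP 486 nm/YFP 530 nm FRET ratio 45 min after adding 0.125 microM importin beta to 50 nM Rango biosensor preincubated 5 min with compound (room temperature, PBS with DTT, Tween-20, BSA). No-importin wells as positive control.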
GLA inh pH 4.5 – qHTS Assay for Inhibitors of Human alpha-Galactosidase at pH 4.5; 230,000 tested, under 10 active; Alpha-galactosidase A (Homo sapiens), P06280; purified enzyme, 4-MU-alpha-Gal fluorescence, pH 4.5; activity change, negative = inhibition, % at 105 µM; inconclusive = small, poorly fitted or top-dose-only inhibition, or a rising curve; inactive = flat fitted curve, though single readings scatter; no compound was filed as active;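 note: 0% = full activity with enzyme and -100% = basal without enzyme; dose as in the result columns while the protocol names 77 µM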
miR-21 FLuc – qHTS Assay for Modulators of miRNAs and/orActivators of miR-21; AID 2288, 2010; Potency, µM (doses to about 38.3 µM), for inactives: at the top dose reporter change, positive = more light; HeLa miR-21 FLuc reporter, luciferase, 48 h; 340,000 tested, under 10 active; active = well fitted rising curve with a large enough effect; inconclusive = small, poorly fitted or top-dose-only effect; inactive = no such curve, though single readings can be large or run the other way;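 note: % of control where 0% means no effect; miR-21 action dims this reporter so a rising signal means less miR-21 action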
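Using DMEM plus 10% FBS, HeLa miR-21-FLuc cells are incubated with test compounds (final up to about 40uM) for 48 hours; firefly luciferase signal is then imaged following reagent-mediated lysis.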
Rango dissoc inh – qHTS Assay for Inhibitors of RanGTP induced Rango (Ran-regulated importin-beta cargo) - Importin beta complex dissociation | Biochemical FRET Rango-importin beta, RanGTP-induced dissociation | Potency, µM (doses to about 46.1 µM), inactives show at the highest dose activity change, negative = inhibition | Snurportin-1 (Homo sapiens) + GTP-binding nuclear protein Ran (Homo sapiens) + Importin … | 0.071% of 340,000 active; active means falling FRET ratio curve, often poorly fitted, with flat reads before Ran was added; inconclusive means other falling curves, or compound fluorescence or quenching; inactive means flat or rising ratio curve;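 note: potency is the fitted concentration of half-maximal effect; % of control where 0% means no effect; nearly all actives have a fitted effect of over 45% in size; -100% = wells without RanGTP and RCC1; the record marks most hits as doubtful in a second field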
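Rango FRET biosensor (snurportin-1 IBB flanked by N-terminal EYFP and C-terminal CFP10) at 0.1 uM, with 0.25 uM importin beta in PBS, 1mM DTT, 0.02% Tween-20, 0.1% BSA. 0.6 uM Ran, 2mM GTP and 0.2 uM RCC1 were then added for 45 min at room temperature. Inhibition read as loss of FRET rise.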
* hit, by the source's call; ? = inconclusive; / = no result given; & = joins results of further samples. A portion of the library, so the mix of outcomes need not match the whole.

SMILES,GLA inh pH 4.5,Rango-impB inh,Rango dissoc inh,miR-21 FLuc
COc1ccc(F)cc1S(=O)(=O)N1CCN(C(=O)c2ccco2)CC1,/,1.4%,3%,4%
c1ccc(Cc2ccc(OCCCNC3CCCC3)cc2)cc1,?,/,/,-10%
NC(=O)N/N=C/c1cn(-c2ccccc2)nc1-c1cccnc1,-3,6.6%,6%,-22%
O=C(CSCc1nc2c(nnn2Cc2ccc(F)cc2)c(=O)[nH]1)Nc1c(Cl)cc(Cl)cc1Cl,1,0.2%,-1%,1%
Nc1c(NCCc2ccccc2)c2ccccc2oc1=O,-6,0.0%,26%,-39%
Cc1ccccc1-c1cc(C(=O)NCc2ccc(OC(F)(F)F)cc2)nn1CC1CC(c2cccc([N+](=O)[O-])c2)=NO1 (stereo not given),/,-2.6%,1%,/
O=C(N=C1SC2CS(=O)(=O)CC2N1c1cccc(Cl)c1)C1CCCO1 (stereo not given),/,0.9%,1%,2%
COc1cccc(N2CCN(c3ncnc4c3[nH]c3ccccc34)CC2C)c1 (stereo not given),1,/,/,?
N#CCCN(CC(=O)O)S(=O)(=O)c1ccccc1,-3,0.9%,-1%,-4%
CCN(CC)S(=O)(=O)c1ccc(C(=O)OCC(=O)Nc2sc3c(c2C#N)CCCCC3)cc1,-5,1.0%,10%,-12%
CCCCN(CC)CCNC(=O)CCC(=O)Nc1ccc2nc(N3CCN(C)CC3)cc(C)c2c1,?,?,?,-13%
CC1(c2ccc(OC(F)F)cc2)NC(=O)N(CC(=O)NC2CCCCC2)C1=O (stereo not given),-8,-2.6%,-6%,-1%
O=C(NCC1CCCO1)c1cc(-c2ccc(F)cc2)no1 (stereo not given),/,-1.9%,-2%,-56%
O=S(=O)(Nc1ccc2[nH]ncc2c1)c1ccccc1Cl,/,-2.0%,-13%,14%
Cc1cc(C)c2cc(C(=O)Nc3ccccc3)[nH]c2c1,-11,-0.1%,-10%,-51%
O=C(Nc1ccc(Nc2ccccc2)cc1)N1CCOCC1,-2,-1.5%,-5%,-4%
CCCCCn1c(=O)[nH]c2cc(C(=O)NC3CCN(Cc4ccccc4)CC3)ccc2c1=O,/,2.0%,40%,/
COC(=O)C1C2C=CC3(CN(C(C)c4ccc(OC)cc4)C(=O)C13)O2 (stereo not given),1,-0.7%,3%,1%
CC1(C2CC2)NC(=O)N(CC(=O)N2CCN(c3ccccc3Cl)CC2)C1=O (stereo not given),/,3.7%,-11%,/
CCN(C(=O)CSc1nc(C)nc2sc(C)c(C)c12)C1CCS(=O)(=O)C1 (stereo not given),/,2.1%,12%,/
COc1ccc(N(CC(=O)N2CCc3ccccc3C2)S(=O)(=O)c2c(C)nn(C)c2C)cc1,4,-2.3%,8%,-2%
O=C(COc1ccccc1Cl)N(Cc1cccs1)C1CCS(=O)(=O)C1 (stereo not given),/,1.1%,5%,-5%
O=C1CCS/C(=N\N=C\c2ccc(Cl)cc2Cl)N1,-15,0.1%,1%,-6%
Cc1ccc(NC(=O)CCNS(=O)(=O)c2ccccc2)cc1S(=O)(=O)N1CCOCC1,/,-0.6%,-8%,/
CC1CCc2cc(F)ccc2N1C(=O)CSc1nnc2c3ccccc3n(C)c2n1 (stereo not given),-2,1.8%,-2%,-2%
COc1ccc(N/C=C(\C=C\C#N)S(=O)(=O)c2ccccc2)cc1,/,1.2%,7%,-3%
O=C(/C=C/c1ccco1)NCc1ccc2c(c1)OCO2,/,-0.6%,23%,-7%
CCOC(=O)c1c(-c2ccccc2)csc1NC(=O)c1cc(-c2ccccc2OC)on1,/,-1.0%,6%,/
Cc1ccc(CCNC(=O)C2CCN(S(=O)(=O)c3ccc4c(c3)oc(=O)n4C)CC2)cc1,/,1.1%,7%,0%
COc1ccc(-c2nc(SC(CC(=O)NCc3ccccc3)c3ccc(OC)c(OC)c3)n[nH]2)cc1 (stereo not given),-7,-1.5%,-13%,-13%
O=C(O)Cc1c[nH]c2cccc(O)c12,-8,-5.4%,6%,0%
COc1ccc(-n2c(C)cc(C(=O)CSc3nnc(-c4ccoc4C)n3C)c2C)cc1,3,0.1%,1%,14%
Cn1c(=O)c2c3c(sc2n2c(SCc4ccc5c(c4)OCO5)nnc12)COC(C)(C)C3,-1,/,/,0%
COc1cc2c(C)nc3onc(-c4ccccc4)c3c2cc1OC,-13,3.4%,27%,-11%
CC1CCc2nn(CC(=O)NCc3ccc4c(c3)OCO4)cc2C1 (stereo not given),2,-2.3%,3%,-5%
O=C(C1CC1)N1CCc2cc(Br)cc(S(=O)(=O)N3CCCCCC3)c21,9,2.2%,0%,-1%
COc1ccc(-n2c(Cn3c(=O)sc4ccccc43)nnc2SCC(=O)N2CCCC2)cc1,5,-2.1%,12%,-3%
COc1ccc(-n2c(SCc3ccc([N+](=O)[O-])cc3)nnc2-c2ccc(C)cc2)cc1,0,-1.0%,-2%,-9%
Fc1ccccc1COc1ccc(/C=N/NC(=S)NCc2ccccc2)cc1,1,-3.0%,13%,-10%
c1ccc(-c2nnsc2-c2ccccc2)cc1,/,-0.2%,-12%,-6%
COc1ccc(CCNC(=O)Cn2cc(C(F)(F)F)cc(Cl)c2=O)cc1,-9,-0.3%,6%,2%
CCCn1c(C)cc(C(=O)COC(=O)c2cc(S(=O)(=O)NCC(C)C)c(Cl)cc2Cl)c1C,-2,-0.4%,0%,-4%
CC(=O)N1CCN(c2ccc(S(C)(=O)=O)cc2[N+](=O)[O-])CC1,2,-4.3%,0%,2%
CC(=O)N1N=C(c2ccco2)CC1c1ccc(C)cc1 (stereo not given),-1,-0.2%,3%,-12%
Cc1cc2c(=O)n(Cc3ccco3)c(SCC(=O)c3ccc(Cl)s3)nc2s1,-15,-2.5%,-8%,12%
COc1cc(Br)cc2cc(C(=O)N3CCN(C(=O)c4ccco4)CC3)c(=O)oc12,-5,?,-15%,0%
COc1cc(C(=O)N2CCN(C(=O)C3CCCO3)CC2)cc(OC)c1OC (stereo not given),/,-3.3%,-7%,/
Cc1cc(C)c(C#N)c(Nc2ccc3c(c2)OCCO3)n1,5,-1.2%,-22%,-5%
O=C(COC(=O)c1cc(Br)ccc1O)NC1CCCCCC1,/,-1.3%,-14%,/
Cc1cccc(N2CCN(Cc3ccoc3)CC2)c1C,1,1.2%,3%,-13%
C[C@H](NC(=O)c1ccco1)C(=O)Nc1cccc([N+](=O)[O-])c1,11,2.6%,1%,-2%
Cc1cc(C)nc(NNC2=CC(=[N+]3CCCC3)CCC2)n1,1,0.6%,17%,1%
COc1ccc(S(=O)(=O)N2CCN(CC(=O)NC3CC3)CC2)cc1,/,0.0%,-7%,-2%
OCCC1CN(CC(c2ccccc2)c2ccccc2)CCN1C1CCCC1 (stereo not given),-2,0.3%,5%,-1%
O=C1NC(=Nc2ccc(O)cc2)S/C1=C/c1ccco1,-6,-4.7%,1%,-7%
CCOC(=O)C1CCCN(C(=O)c2ccc(C)c(S(=O)(=O)N3CCCCC3)c2)C1 (stereo not given),/,-0.2%,4%,/
CN/C(=C/[N+](=O)[O-])NCCSCc1csc(CN(C)C)n1,/,-1.2%,-1%,/
O=C(Nc1ccc2c(c1)OCO2)c1cccc(F)c1,-3,-3.4%,-6%,-47%
Cc1ccc(NC(=S)NCC(O)c2ccccc2)c(C)c1 (stereo not given),/,-1.0%,-2%,-16%
O=C(CNC(=O)c1cccc(Br)c1)N/N=C/c1ccc[nH]1,10,0.2%,-8%,7%

More structures follow:
SMILES,GLA inh pH 4.5,Rango-impB inh,Rango dissoc inh,miR-21 FLuc
COC(=O)[C@@]1(Cc2ccc(F)cc2)[C@H]2c3cc(C(=O)N4CCCC4)n(Cc4ccc(C(F)(F)F)nc4)c3C[C@H]2CN1C(=O)c1ccccc1,-19&-14,2.3%,-20%,5%
O=C(NCCn1ccc2ccccc21)c1ccc(S(=O)(=O)N2CCOCC2)cc1,0,0.5%,7%,-1%
O=C(c1cc(-c2ccccc2)nc2ccccc12)N1CCN(c2ccccn2)CC1,-10,5.5%,-2%,-2%
COc1cccc(NC(=O)c2ccc3nc(C)sc3c2)c1,/,-0.5%,-2%,-59%
N#Cc1c(SCC(N)=O)nc(-c2ccccc2)c2c1CCCC2,7,1.0%,-1%,5%
CCOc1cc(N2CCOCC2)c(OCC)cc1NC(=O)CSc1n[nH]c(N)n1,-3,-0.5%,3%,2%
CCOc1ccc(N(CC(=O)OC)S(=O)(=O)c2ccc(OC)c(OC)c2)cc1,2,1.1%,-20%,-7%
COC(=O)c1sc2ncn(CC(=O)N(C)C3CCCCC3)c(=O)c2c1C,/,-2.4%,1%,-1%
COc1ccc(C(=O)O/N=C/c2ccc(S(=O)(=O)c3ccc(Cl)cc3)nc2)cc1,/,11%,-6%,/
COc1ccccc1NC(=O)c1ccc(S(=O)(=O)N2CCCC(C)C2)cc1 (stereo not given),/,2.1%,-8%,0%
COc1cc(OC)cc(C(=O)Nc2nnc(Cc3ccc(OC)c(OC)c3)s2)c1,5,-5.6%,-18%,21%
Cc1ccc(S(=O)(=O)n2nc(C)cc2C)cc1,4,0.6%,-3%,-2%
CCN1CCN(CCNC(=O)C2CCCN(Cc3nc(-c4cccc(Cl)c4)oc3C)C2)CC1 (stereo not given),6,2.3%,-9%,2%
O=C(C1CCC1)N1CCc2cc(S(=O)(=O)NCc3ccccn3)ccc21,8,0.9%,-8%,-11%
N#Cc1c2n(c3c(=S)nc[nH]c13)CCCCC2,7,-2.7%,-27%,7%
O=C(CCC1CCCCC1)NCCN1C2=NC[C@@H](Cc3ccccc3)N2C[C@H]1Cc1ccc(O)cc1,-3,6.1%,7%,25%
COc1ccc(S(=O)(=O)Nc2ccc(C(F)(F)F)cc2)cc1OC,-3,-0.1%,-14%,-4%
CCOC(=O)C(NC(C)=O)(N1CCc2ccccc2C1)C(F)(F)F (stereo not given),6,-4.6%,-5%,-10%
COC(=O)C1=C(C)NC(C)=C(C(=O)OC)C1c1ccccc1OCc1c(C)no[n+]1[O-],-1,1.5%,3%,-14%
Cc1ccnc2nc(C(=O)Nc3nccs3)nn12,2,0.7%,-2%,-28%
CC1CCCCC12NC(=O)N(CC(=O)Nc1ccccc1-c1ccccc1)C2=O (stereo not given),7,-1.0%,15%,0%
Cc1ccc(OCC(=O)N/N=C/c2cn(Cc3ccccc3)c3ccccc23)cc1,1,-1.0%,-1%,-5%
COc1ccc(NC2CCCN(C(=O)c3c(C)noc3C)C2)cc1 (stereo not given),/,-5.0%,-1%,-1%
COc1ccc(S(=O)(=O)Nc2ccccc2SC)cc1C,6,-2.2%,-4%,0%
Cc1ccc(S(=O)(=O)N(C)c2ccc(OCC(=O)OCc3ccc(C#N)cc3)cc2)cc1,/,-0.6%,-3%,/
CC1CCCC(NC(=S)NC(=O)c2cncc(Br)c2)C1C (stereo not given),-4,-3.3%,1%,-16%
CCOC(=O)c1c(NC(=O)COC(=O)c2ccncc2)sc(C)c1C,1,-3.4%,4%,-1%
Cc1ccc(CC(=O)NCc2ccc(Cl)cc2)cc1,0,7.8%,-4%,10%

Sorted by length of the SMILES (lowest first): three of the compounds above.
SMILES,GLA inh pH 4.5,Rango-impB inh,Rango dissoc inh,miR-21 FLuc
COc1cccc(NC(=O)c2ccc3nc(C)sc3c2)c1,/,-0.5%,-2%,-59%
CCOC(=O)C(NC(C)=O)(N1CCc2ccccc2C1)C(F)(F)F (stereo not given),6,-4.6%,-5%,-10%
COc1cc(OC)cc(C(=O)Nc2nnc(Cc3ccc(OC)c(OC)c3)s2)c1,5,-5.6%,-18%,21%
